Lassa entry inh: inhibitors of Lassa virus binding or cell entry; AID 540256; Lassa virus pseudotype entry inhibition, cell reporter; control for the full effect not named in the record; 1.2% of 300,000 active; Potency, µM (titrated, usually from 37.9 µM), for the others: top-dose activity change, negative = inhibition, most hits filed as inhibitors; active means well fitted inhibition curve with a large enough effect; inconclusive means small, poorly fitted or top-dose-only effect, or effect the other way; inactive means flat fitted curve, though single readings scatter; tested in HEK293 cells; further: on the % scale 0 is the no-effect control and ±100 the full control effect; nearly all actives have a fitted effect of over 50% in size; luciferase read-out
NS1 function inh: inhibitors of influenza NS1 protein function; S. cerevisiae slowed by influenza A NS1, growth recovery by OD600; Potency, µM (titrated, usually from 46.1 µM), inactives show at the highest dose activity, positive = more growth; AID 2326; 0.4% of 270,000 active; active means well fitted rising curve with a large enough effect; inconclusive means small, poorly fitted or top-dose-only effect; inactive means no such curve, though single readings can be large or run the other way; further: nearly all actives have a fitted effect of over 50% in size
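Read-out: OD600 growth recovery of NS1-expressing budding yeast. Cells grown overnight at 30C in -URA glucose medium, washed, resuspended and diluted 1:100 in 2% galactose assay medium, pH 6.0. Same strain lacking NS1 served as positive control.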
2A StopGo: FMDV 2A StopGo reporter, luciferase signal; human cells with a luciferase reporter of 2A StopGo recoding; control for the full effect not named in the record; Potency, µM (doses to about 57.9 µM), inactives show at the highest dose signal change, negative = less light; 1.2% of 410,000 active; AID 1159524; active = well fitted falling curve with a large enough effect; inconclusive = small, poorly fitted or top-dose-only effect; inactive = no such curve, though single readings can be large or run the other way; tested in HEK293T cells; further: on the % scale 0 is the no-effect control and ±100 the full control effect; nearly all actives have a fitted effect of over 45% in size; luciferase light after 4 h
RE007 growth inh: less growth of the S. pombe RE007 Vpr strain; Potency, µM (highest dose often 92.2 µM), for the others: at the highest dose activity change, negative = less growth; S. pombe RE007 Vpr strain, BacTiter-Glo ATP luminescence, 24 h; control for the full effect not named in the record; AID 651644; 0.21% of 360,000 active; active = well fitted falling curve with a large enough effect; inconclusive = small, poorly fitted or top-dose-only effect; inactive = no such curve, though single readings can be large or run the other way;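 further: on the % scale 0 is the no-effect control and ±100 the full control effect; nearly all actives have a fitted effect of over 50% in size; the assay follows cell death caused by Vpr and the record does not say whether a fall means rescue or toxicity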
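Fission yeast RE007 carrying one integrated HIV-1 vpr copy, seeded at OD 0.01 in PMG+AL medium with 23 nL pinned compound. Grown 24 h at 30 degrees; viability read by BacTiter-Glo luminescence after 5 min.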
Cruzain noTriton: inhibitors of Trypanosoma cruzi cruzain without detergent. P25779. purified cruzain, Z-FR-AMC fluorescence, no detergent. Potency, µM, without a hit: max response, negative = inhibition, usual class: inhibitors. 2.3% of 200,000 active. AID 1476;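 further: plate controls were enzyme without inhibitor for no effect and buffer without enzyme for full effect; nearly all actives have a fitted effect of over 40% in size; top concentration of the series not given in the record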
Target sequence (P25779 123-467 limits assumed): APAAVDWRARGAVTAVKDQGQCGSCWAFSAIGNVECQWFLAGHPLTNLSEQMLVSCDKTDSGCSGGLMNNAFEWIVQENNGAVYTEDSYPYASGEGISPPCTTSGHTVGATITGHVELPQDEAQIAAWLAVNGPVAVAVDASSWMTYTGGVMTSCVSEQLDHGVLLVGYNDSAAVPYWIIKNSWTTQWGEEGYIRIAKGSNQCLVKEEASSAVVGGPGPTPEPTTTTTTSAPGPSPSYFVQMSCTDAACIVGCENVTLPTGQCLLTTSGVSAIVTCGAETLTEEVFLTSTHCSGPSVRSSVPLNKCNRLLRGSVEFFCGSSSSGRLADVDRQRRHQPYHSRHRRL
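Detergent-free condition (0.00005% Triton X-100) in acetate buffer pH 5.5 with DTT. 1.5 nM enzyme and compound were pre-mixed 15 min, then 2 uM Z-FR-AMC substrate added; reaction progress from fluorescence change between first and third reads (60 s).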
SARS PLpro yeast: inhibitors of SARS-CoV papain-like protease in yeast. 0.19% of 330,000 active. S. cerevisiae expressing SARS-CoV PLpro, growth rescue; control for the full effect not named in the record. Potency, µM (series often up to 32.9 µM), for the others: at the highest dose activity, positive = growth rescue; active means well fitted rising curve with a large enough effect; inconclusive means small, poorly fitted or top-dose-only effect; inactive means no such curve, though single readings can be large or run the other way; further: 0% is about no effect; nearly all actives have a fitted effect of over 55% in size; growth read by luminescence after 48 h
Cruzain inh Det: cruzain (T. cruzi) inhibition with detergent | P25779 | purified cruzain, Z-FR-AMC fluorescence, 0.01% Triton | Potency, µM, inactives show max response, negative = inhibition, actives largely listed as inhibitors | 0.43% of 200,000 active | AID 1478;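 further: plate controls were neutral wells for no effect and buffer without enzyme for full effect; nearly all actives have a fitted effect of over 40% in size; top concentration of the series not given in the record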
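Sodium acetate buffer (100 mM, pH 5.5) containing 5 mM DTT and 0.01% Triton X-100 hosted 1.5 nM cruzain and test compound for 15 min at room temperature. Cleavage of 2 uM Z-FR-AMC was then tracked by fluorescence.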
Marburg entry inh: blocks Marburg virus binding to or entry into cells. Marburg virus pseudotyped entry inhibition, cell reporter; control for the full effect not named in the record; about a third of the inactives were read at about 46 µM. Potency, µM (top dose mostly 37.8 µM), inactives show top-dose activity change, negative = inhibition, actives largely listed as inhibitors. 1.8% of 300,000 active. AID 540276; active = well fitted inhibition curve with a large enough effect; inconclusive = small, poorly fitted or top-dose-only effect, or effect the other way; inactive = flat fitted curve, though single readings scatter; tested in HEK293 cells; about a fifth of its hits are not listed in these tables; further: on the % scale 0 is the no-effect control and ±100 the full control effect; luciferase read-out
* = called active by the depositor; ? = inconclusive; . = not tested or not shown; & = joins results of further samples; [ ] = dose if it differs, or a comment. Unless noted, the call rests on the fitted dose curve; in most records, active means well fitted curve in the direction sought with a large enough effect; inconclusive means small, poorly fitted or top-dose-only effect, or another doubt; inactive means no such curve, though single readings can be large; an effect the other way counts as inactive or inconclusive. Potency means the concentration at half of the fitted maximal effect.

No.	SMILES	Lassa entry inh	NS1 function inh	2A StopGo	RE007 growth inh	Cruzain noTriton	SARS PLpro yeast	Cruzain inh Det	Marburg entry inh
1	CCOc1c(Br)cc(C2CC(=O)Nc3cc4c(cc32)OCO4)cc1OC (stereo not drawn)	?	.	-3%	.	-6%	.	-1.1%	?
2	COc1ccc(NS(=O)(=O)c2ccc(NS(=O)(=O)c3ccc(C)cc3)cc2)nn1	2%	4%	16%	-4%	2%	10%	-1.2%	14%
3	O=C(NCCN1CCCCC1)Nc1ccccc1	10%	-7%	15%	-12%	9%	14%	-0.3%	-3%
4	COc1ccc(C(=O)C[n+]2ccc3c(c2)nc(-c2cc(OC)c(OC)cc2OC)n3C)cc1	2%	18%	-7%	-5%	4%	-1%	-4.2%	-4%&5%
5	CCN(CC)c1ccc(/C=C2\SC(=O)N(C(C)C)C2=O)o1	?	-93%	19%	?	.	-4%	.	11µM*
6	CCCCc1ccc(NC(=O)N[C@@H](CC(C)C)C(=O)O)cc1	.	7%	-10%	16%	.	1%	.	.
7	CC1=CC(C)(C)Nc2ccc(OC(=O)CN3C(=O)C4CCCCC4C3=O)cc21 (stereo not drawn)	-7%	-1%	20µM*	5%	0%	-5%	-6.4%	?
8	COc1ccccc1NC(=O)c1cc2cc(Br)ccc2oc1=N	.	-7%	4%	-12%	.	-1%	.	.
9	Cc1cccc(OCC(=O)Nc2ccc(Cl)c(-c3nc4ncccc4o3)c2)c1C	?	.	-25%	.	?	.	-3.4%	-8%[46.1 µM]
10	CCN(CC)S(=O)(=O)c1cccc(NC(=O)c2cc(=O)[nH]c3ccccc23)c1	15%	-5%	-16%	-5%	-3%	?	-4.6%	6%
11	Cc1ccc(S(=O)(=O)n2nnc3ccccc32)c(C)c1C	2%	-6%	13%	9%	.	0%	.	17%[46.1 µM]
12	Cc1cc(Nc2ccccc2)n(C(=O)c2ccc(Cl)cc2)n1	?	-30%	.	13%	-12%	-91%	-6.4%	1%
13	COc1ccc(C(=O)N2CCN(Cc3cc(OC)ccc3OC)CC2)cc1	.	0%	-12%	2%	.	3%	.	.
14	N/C(=N\OC(=O)c1ccccc1)c1cccnc1	.	-4%	4%	-16%	.	0%	.	.
15	O=C(c1ccc(CN2CCc3ccccc3C2)cc1)N1CCCCC1	12%	-14%	-19%	21%	3%	-4%	0.8%	-19%
16	O=C(NCc1cccs1)c1cc2ccccc2o1	-9%	-14%	34%[activator]	-6%	2%	1%	-1.1%	7%
17	COc1ccc(C2c3ccc4ccccc4c3Oc3ncn(CCCO)c(=N)c32)cc1OC (stereo not drawn)	?	3%	-21%	-9%	.	0%	.	?
18	CCCc1cc(=O)oc2cc(C)cc(OC(C)C(=O)NCC(O)c3ccccc3)c12 (stereo not drawn)	.	1%	8%	5%	.	-3%	.	.
19	CC1=C(C(=O)c2ccccc2)C(c2cn(-c3ccccc3)nc2-c2ccc(Cl)cc2)NC(=S)N1 (stereo not drawn)	0%	23%	-28%	-8%	10µM*	3%	3.3%	?
20	Cc1ccc(NC(=O)CSc2nc3c(sc4ccccc43)c(=O)n2CCCC(=O)NC2CCCC2)cc1C	-21%[46.1 µM]	.	-6%	.	7%	.	3.4%	2%[46.1 µM]
21	COc1ccc(C2CN=NC23CCCc2ccccc2C3=O)cc1 (stereo not drawn)	-30%	-32%	?	-25%	0%	-15%	-1.4%	-16%
22	COc1ccc(C(=O)Nc2cc3c(cc2C#N)OCO3)cc1S(=O)(=O)NCc1ccco1	-20%	2%	52%[activator]	-12%	7%	-1%	4.1%	-5%
23	COc1ccc(CNCCCSc2ncccn2)c(OC)c1	.	9%	-7%	7%	.	-2%	.	.
24	CC(C)Oc1ccc(C(=O)N2CCN(C(=O)c3ccco3)CC2)cc1	-1%	5%	-14%	7%	.	1%	.	-15%
25	Cc1nc2nc(C)c(NS(=O)(=O)c3ccc(CC(C)C)cc3)c(=O)n2[nH]1	0%	14%	3%&3%	-12%	3%	3%	-1.5%	?
26	COC(=O)C1CCN(C(=O)/C=C/c2ccc(OC)cc2)CC1	?	3%	38%[activator]	3%	3%	8%	-0.5%	-3%
27	COC(=O)[C@@H](Cc1ccccc1)NC(=O)NCCc1c[nH]c2ccccc12	-27%	-2%	-9%	7%	.	-2%	.	-9%
28	CCCn1c(CCc2ccccc2)nnc1SCC(=O)N1CCCC1	2%	0%	-14%	12%	11%	0%	6.1%	9%[46.1 µM]
29	CCOC(=O)c1ccc(-c2nnc(-c3ccc(Cl)cc3Cl)o2)cc1	?	-2%	8%	-6%	?	9%	-4.8%	5%
30	CCOc1cccc(/C=N/N2CCN(c3ccc(Cl)cc3)CC2)c1O	.	-1%	?	-18%	.	-1%	.	.
31	CCOC(=O)N1CCC(N2C(=O)c3ccc(C(=O)Nc4ccc(OC)c(OC)c4)cc3C2=O)CC1	.	1%	-22%	17%	.	1%	.	.
32	CN(Cc1cnccn1)C(=O)c1cc(COc2cccc(C(F)(F)F)c2)on1	-6%[46.1 µM]	-12%	9%	-22%	.	2%	.	14%[46.1 µM]
33	CN(Cc1cc([N+](=O)[O-])ccc1Cl)C(=O)C[n+]1ccccc1	1%	-3%	8%	0%	.	-3%	.	12%[46.1 µM]
34	COc1cccc(NC(=O)CNS(=O)(=O)c2ccc3nc(C)sc3c2)c1	20%	7%	2%	-10%	-6%	-1%	8.0%	18%
35	CCCc1cc(C(=O)Nc2c(C)nn(Cc3ccc(C)cc3)c2C)no1	-12%[46.1 µM]	.	?	.	0%	.	-3.7%	?
36	c1ccc(CCN2CCC3(CC2)OCCO3)cc1	8%	.	8%	13%	.	.	.	?
37	O=S(=O)(Nn1cnnc1)c1ccc2ccccc2c1	8%	.	-8%	0%	.	1%	.	8%
38	Cc1ccc(-c2nc(Cl)nc3ccccc23)cc1	5%[46.1 µM]	.	6%	1%	.	0%	.	?
39	NC(=O)C1CCCN(CC(=O)Nc2ccccc2C(=O)NC2CC2)C1 (stereo not drawn)	0%	.	-13%	-6%	.	5%	.	?
40	COc1ccc(/C(C)=N/NS(=O)(=O)c2ccccc2)c(OC)c1	-9%	.	22%	-3%	.	-3%	.	-24%[46.1 µM]
41	Cc1cc(NC(=O)C(C)Oc2ccccc2)no1 (stereo not drawn)	-1%	-1%	-14%	10%	.	-1%	.	?
42	COc1cc(NC(=O)C(CC(C)C)NS(=O)(=O)c2ccc3c(c2)oc(=O)n3C)c(C(=O)O)cc1OC (stereo not drawn)	0%[46.1 µM]	.	-19%	.	-4%	.	-0.2%	?
43	CSc1ccc(C(c2c(C(=O)O)[nH]c3ccccc23)c2c(C(=O)O)[nH]c3ccccc23)cc1	.	?	-5%	6%	.	9%	.	.
44	O=C(NNC(=O)c1ccc2c(c1)OCO2)NC12CC3CC(CC(C3)C1)C2	2%	-9%	30%[activator]	-2%	10%	4%	3.0%	?
45	CCOc1cc(C#N)c(NC(=O)c2cccnc2Cl)cc1OCC	12%	5%	10%	18%	1%	-1%	4.2%	6%
46	CN1CCC(=O)N([C@H](CC#N)c2ccccc2)CC1	.	3%	2%	0%	.	3%	.	.
47	Cc1ccc(-c2nn3c(C)nnc3s2)cc1NC(=O)CSc1ccc(Cl)cc1	-10%	2%	0%	9%	1%	25%	-3.4%	-25%
48	Cc1nc2cc(-c3ccsc3-n3c(C)ccc3C)[nH]n2c(=O)c1Cl	-1%	3%	32µM*	-13%	?	-2%	-29%	-30%
49	CCOC(=O)c1c(-c2ccc(OCC)cc2)csc1NC(=O)CCN1C(=O)c2ccccc2C1=O	-12%	10%	.	.	?	24%	-3.9%	2%
50	O=C(NCc1ccccc1)C(c1ccncc1)N(C(=O)c1csnn1)c1ccccc1F (stereo not drawn)	-24%	0%	23%	1%	.	1%	.	1%[46.1 µM]

Later entries:
No.	SMILES	Lassa entry inh	NS1 function inh	2A StopGo	RE007 growth inh	Cruzain noTriton	SARS PLpro yeast	Cruzain inh Det	Marburg entry inh
51	O=C(COC(=O)Cc1c(F)cccc1Cl)NC1CCS(=O)(=O)C1 (stereo not drawn)	11%	.	-16%	13%	.	6%	.	-3%
52	CC(=O)N1CCCc2cc(S(=O)(=O)N3CCCC(C(=O)N4CCN(c5ccccc5F)CC4)C3)ccc21 (stereo not drawn)	?	.	16µM*	.	?	.	-2.8%	.
53	COc1ccc(CNc2nc(NC(C)=O)nn2-c2ccccc2)cc1	20%[46.1 µM]	21%	-8%	6%	.	7%	.	-10%[46.1 µM]
54	CC(C)OC(=O)c1ccc(COC(=O)c2cccc(-c3nnc(-c4ccccc4)o3)c2)cc1	?	-1%	-3%	0%	-19%	-5%	-0.4%	?
55	NC(=O)CC(NC(=O)Cc1cccc2ccccc12)c1ccc(N2CCCCCC2)c([N+](=O)[O-])c1 (stereo not drawn)	.	-2%	-1%	6%	.	-10%	.	.
56	COc1cc(NC(=S)Nc2cccc(C)n2)cc(OC)c1OC	.	0%	10%	-10%	.	2%	.	.
57	COc1ccc(N2CCN(C(=O)c3oc4ccccc4c3NC(=O)CCc3cc(OC)no3)CC2)cc1	-21%[46.1 µM]	?	25µM*	3%	.	0%	.	-18%[46.1 µM]
58	O=C(Cn1ncc2c(=O)oc3ccccc3c21)NC1CC1	41%	-3%	14%	-3%	-2%	-5%	6.6%	?
59	NC(=O)c1cccnc1Nc1ccccc1F	21%	-16%	37%[activator]	-3%	-11%	-8%	-1.8%	16%[46.1 µM]
60	CCOC(=O)Cc1csc(NC(=O)CSc2nc(C)cc(=O)[nH]2)n1	1%	-3%	1%	10%	5%	0%	1.1%	-7%
61	Oc1c(Br)cc(Br)cc1CNc1ccc(F)cc1	-13%[46.1 µM]	-2%	?	?	.	-3%	.	?
62	CCCc1nn(C)c2c(=O)[nH]c(-c3ccccc3OCC)nc12	6%	3%	-1%	1%	?	7%	1.1%	0%
63	CCN(CC(=O)Nc1cccc(S(N)(=O)=O)c1)Cc1nc2ccccc2c(=O)[nH]1	.	4%	-18%	5%	.	-6%	.	.
64	CCOc1ccccc1NC(=O)Cc1ccccc1OC	16%	-3%	-10%	-17%	-8%	-6%	-0.5%	-16%[46.1 µM]

Screening data (PubChem)
